Assay outcomes as filed in PubChem BioAssay.
PABP FP inh = PABP poly(A) RNA binding inhibitors, primary screen, biochemical, fluorescence polarization, uHTS; Polyadenylate-binding protein 1 (Homo sapiens), P11940; inhibition, % at 35 µM; 290,000 tested, 1% active;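 active means 50% or more with normal probe brightness, or confirmed in later tests; about a fifth of its hits are not listed in these tables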;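 further: calls also rest on retests at 20 µM and on dose response follow-up; controls were probe without protein and protein plus probe with vehicle; some compounds called inactive have numbers as strong as hits; many hits fall short of the cut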
Target sequence (P11940 whole entry, looked up): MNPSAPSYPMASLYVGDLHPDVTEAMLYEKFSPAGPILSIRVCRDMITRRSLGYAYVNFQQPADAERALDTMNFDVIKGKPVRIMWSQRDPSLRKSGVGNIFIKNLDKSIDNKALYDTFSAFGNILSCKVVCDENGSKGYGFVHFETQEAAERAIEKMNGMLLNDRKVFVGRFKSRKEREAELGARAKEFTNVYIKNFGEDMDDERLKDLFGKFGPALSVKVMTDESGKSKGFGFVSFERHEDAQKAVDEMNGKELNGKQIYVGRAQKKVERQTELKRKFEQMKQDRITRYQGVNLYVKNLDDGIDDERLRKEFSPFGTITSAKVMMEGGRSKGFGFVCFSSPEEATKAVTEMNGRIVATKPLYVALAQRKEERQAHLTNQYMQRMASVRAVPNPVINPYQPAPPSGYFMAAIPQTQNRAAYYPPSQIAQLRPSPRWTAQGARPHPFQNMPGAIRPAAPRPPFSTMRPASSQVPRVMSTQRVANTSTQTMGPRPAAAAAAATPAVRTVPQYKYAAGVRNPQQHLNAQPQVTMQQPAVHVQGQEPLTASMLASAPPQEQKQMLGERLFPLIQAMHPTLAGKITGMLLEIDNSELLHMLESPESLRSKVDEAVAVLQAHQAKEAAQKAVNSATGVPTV
CSC inhib = cancer stem cell viability inhibitors, primary screen, luminescence; inhibition, % at 7.5 µM; cancer stem cell-like cells viability; 300,000 tested, 1.1% active;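 active means mean at 75% or more and at least half the replicates too; tested in HMLE shEcad cells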;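 further: 0% = median of negative and 100% = median of positive control wells; the first replicate is given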
Rce1 inh = yeast Rce1p protease inhibitors, primary screen, biochemical, fluorescence, cell-free homogeneous | CAAX prenyl protease 2 (Saccharomyces cerevisiae (strain ATCC 204508 / S288c)), Q03530 | 290,000 tested, 0.27% active | yeast membranes, quenched prenylated peptide cleavage fluorescence | calls only;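 active means fall in fluorescence gain of 50% or more versus controls, with final raw signal at or below 3038400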;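 further: plate controls were neutral control wells for no effect and wells lacking membranes for full effect; tested at 10 µM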
HIV Env fusion = inhibitors of HIV-1 Env-driven cell-cell fusion, primary screen, HeLa-JRFL effector, CEM21 target cells, luciferase | inhibition, % at 12.3 µM | 360,000 tested, 1.1% active;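 active means mean replicate inhibition score of at least 50 and every replicate individually at or above 50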;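 further: 0% = plate neutral controls and 100% = maraviroc near 300 nM; one replicate is shown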
eIF4H FP inh = human eIF4H binding inhibitors, primary screen, translation initiation inhibitor project, biochemical, uHTS, fluorescence polarization; inhibition, % at 35 µM; eIF4H fluorescence polarization binding assay; Eukaryotic translation initiation factor 4H (Homo sapiens), Q15056; 290,000 tested, 0.94% active;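 active means 50% or more with normal probe brightness, or confirmed in later tests; about a fifth of its hits are not listed in these tables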;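 further: calls also rest on retests at 20 µM and on dose response follow-up; 0% = protein and probe with vehicle and 100% = probe without protein; strong numbers were not always called active; many hits fall short of the cut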
Yeast UUG start = modulators of yeast start codon fidelity, primary screen, whole organism, S. cerevisiae, single point, plate reader; S. cerevisiae UUG-firefly luciferase reporter, luminescence/redox ratio; 350,000 tested, 0.13% active; activity score, % at 18.7 µM;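 active means replicate mean at a twofold rise or more, about +100% in these data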;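 further: firefly luciferase made from a UUG start codon reports start codon fidelity; reporter light over untreated wells divided by growth signal over untreated wells; some hits fall short of that in this replicate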
MT1-MMP act inh = blockers of MT1-MMP proenzyme processing, primary screen, HT1080 RFP-PRO-GFP cells, GFP/RFP fluorescence | Matrix metalloproteinase-14 (Homo sapiens), P50281 | GFP/RFP ratio fluorescence, overnight; percent of plate control window, DMSO zero | GFP/RFP ratio change, % at 20 µM | 360,000 tested, 0.061% active | AID 651647, 2012;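 active means GFP/RFP ratio change of at least 30% with cell ATP level not reduced by more than half and red fluorescence within 50% of control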; further: strong numbers were not always called active
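Assay system: HT1080 RFP-PRO-GFP cells | Dosing: 20 µM single dose, 1% DMSO | Incubation: Cells overnight before dosing, compound overnight, 37 °C, 5% CO2 | Evaluation: GFP/RFP fluorescence ratio | Control set: DMSO-only wells and HT1080 RFP-L50D-GFP cell wells as references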
eIF4H FP inh retest = recorded beside eIF4H FP inh, whose call it bears; inhibition, %; compound at 20 µM; confirmation average;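 mean of two retest wells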
PABP FP inh retest = second read-out of PABP FP inh, no call of its own (marks repeat the call); inhibition, %; compound at 20 µM; confirmation repeats;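 mean of two retest wells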
MT1-MMP act inh RFP = recorded beside MT1-MMP act inh, whose call it bears; RFP signal change, %; measured here: RFP expression control read;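 0 = vehicle wells; hits needed this value within 50% of zero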
Active calls of the source: *; i = inactive; nt = not tested or not shown; & = joins results of further samples.

Sample of the layout (5 entries):
SMILES	PABP FP inh	CSC inhib	Rce1 inh	HIV Env fusion	eIF4H FP inh	Yeast UUG start	MT1-MMP act inh	MT1-MMP act inh RFP	others
CC1Cc2ccccc2N1C(=O)CN1CCN(Cc2ccccc2)CC1 (stereo unspecified)	5	nt	i	13	2	-8	3	6
CCOC(=O)c1ccccc1NC(=O)COc1coc(CN2CCc3ccccc32)cc1=O	nt	-5	i	2	nt	9	3	-2
NC(=O)C1(N2CCCCC2)CCN(c2ccc3nnc(-c4ccccc4)n3n2)CC1	8	7	i	2	-3	-9	4	0
O=C(CSc1nnc(-c2ccncc2)n1Cc1ccco1)OC1CCCCC1	-6	nt	i	nt	-10	-8	-1	3
CN1CCN(C(=S)c2cn(Cc3ccc(Br)cc3)c3ccccc23)CC1	-2	nt	i	1	-12	nt	nt	nt

This part in full (from the top)
SMILES	PABP FP inh	CSC inhib	Rce1 inh	HIV Env fusion	eIF4H FP inh	Yeast UUG start	MT1-MMP act inh	MT1-MMP act inh RFP	others
CC1Cc2ccccc2N1C(=O)CN1CCN(Cc2ccccc2)CC1 (stereo unspecified)	5	nt	i	13	2	-8	3	6
CCOC(=O)c1ccccc1NC(=O)COc1coc(CN2CCc3ccccc32)cc1=O	nt	-5	i	2	nt	9	3	-2
NC(=O)C1(N2CCCCC2)CCN(c2ccc3nnc(-c4ccccc4)n3n2)CC1	8	7	i	2	-3	-9	4	0
O=C(CSc1nnc(-c2ccncc2)n1Cc1ccco1)OC1CCCCC1	-6	nt	i	nt	-10	-8	-1	3
CN1CCN(C(=S)c2cn(Cc3ccc(Br)cc3)c3ccccc23)CC1	-2	nt	i	1	-12	nt	nt	nt
COc1ccc(C(=O)Nc2ccc(-c3nnn(CC(=O)N4CCN(C(=O)c5ccco5)CC4)n3)cc2)cc1	-7	7	i	-34	-7	nt	-1	-1
Cc1ccc(N=C2SC(C(=O)NCCc3ccccc3)CC(=O)N2C)cc1C (stereo unspecified)	4	-6	i	39	5	nt	-3	-3
Cc1ccc(CCNC(=O)NC(C)(C)C)cc1	-14	-10	i	nt	-7	-6	3	4
CCOc1ccc2[nH]c(=O)c(CN(Cc3ccccc3OC)C(=O)c3ccccc3)cc2c1	-6	nt	i	39	-3	-30	-6	-14
CCC(C)(C)n1nnnc1CN(Cc1cc2cc(OC)c(OC)cc2[nH]c1=O)C1CCCC1	45	-8	i	nt	34	-17	-3	0
CN1C(=O)C2(c3ccccc31)N(C)CC(c1ccccn1)C21SC(=S)N(Cc2ccco2)C1=O (stereo unspecified)	-7	8	i	32	-10	-8	-7	-1
COc1ccc(CNC(=O)COC(=O)/C=C/c2cccc(Br)c2)cc1OC	6	-2	i	14	-2	-12	-1	5
Cc1ccc(-n2c(CNc3cccc(Cl)c3)n[nH]c2=S)cc1	6	-12	i	-7	-6	nt	6	4
Cc1oc(C(C)(C)C)cc1C(=O)Nc1ccc(C(=O)O)cc1	3	-12	i	nt	-4	-5	9	5
CCOC(=O)c1sc(=S)n(Cc2ccccc2)c1N	-3	19	i	nt	7	-13	8	7
Cc1ccc(C)c(OCCn2nnc3ccccc32)c1	-10	-8	i	-17	-5	-20	5	-8
Clc1ccc(-c2noc(CCCc3ccccc3)n2)cc1	0	-11	i	-94	2	nt	-5	-4
O=C(Nc1nnc(SCc2ccc(Cl)cc2)s1)C1CCCO1 (stereo unspecified)	0	9	i	nt	0	nt	4	-3
Cc1cc(C)nc(N2CCC(C(=O)NCc3ccccc3)CC2)n1	1	-5	i	-46	2	nt	2	6
COc1ccc(/C=C/C(=O)N2CCN(c3ccccn3)CC2)cc1OC	9	-14	i	9	-10	-5	0	1
Cc1cccc(N2CCN(C(=O)CC(NC(=O)c3ccccc3Cl)c3ccccc3)CC2)c1C (stereo unspecified)	1	-7	i	12	-10	-5	5	-5
O=C(/C=C/c1cc([N+](=O)[O-])ccc1OC(F)F)Nc1ccc(OC(F)F)cc1	8	3	i	6	5	nt	1	2
COCCNC(=O)CSc1c2c(nc3ccc(Cl)cc13)CCCC2	2	24	i	2	2	nt	-1	2
O=C(COC(=O)/C=C/c1ccccc1Cl)NC1CC1	nt	nt	nt	27	nt	-17	3	4
O=C(CN(C(=O)c1csnn1)c1cccc2c1CCCC2)NC1CCCC1	0	-6	i	-6	-2	nt	-1	3
CCN1CCN(c2cc(C)c3cc(NC(=O)c4cccs4)ccc3n2)CC1	3	2	i	1	3	-27	11	4
O=C(NC1CCCCCC1)c1ccc(CS(=O)Cc2cccc(Cl)c2)o1 (stereo unspecified)	7	-7	i	14	-7	-2	3	1
COc1ccc(N(CC(=O)N/N=C/c2ccc(-c3ccc([N+](=O)[O-])cc3)o2)S(=O)(=O)c2ccc(C)cc2)cc1	24	-15	i	-17	46	-21	-16	0
COC(=O)c1ccc(C2C(C(=O)OCC(C)C)=C(C)N=C3SCCC(=O)N32)cc1 (stereo unspecified)	-3	-7	i	8	1	-14	1	0
Oc1ccc2ccccc2c1/C=N/c1nc2c(s1)CCCC2	-2	-3	i	nt	0	-18	6	4
COc1ccc(/C=C/C(=O)O)cc1S(=O)(=O)N1CCc2ccccc21	12	-2	i	1	14	-5	-3	0
COc1ccc(C(=O)CCN2CCc3cc(OC)c(OC)cc3C2)cc1	-1	7	i	11	6	1	3	2
CCN(c1ccccc1)S(=O)(=O)c1ccc(C(=O)OC(C)C(=O)NCCC2=CCCCC2)cc1 (stereo unspecified)	-3	-1	i	-38	-8	9	2	0
COc1cc2cnc(-c3ccccc3)c(-c3ccc(C#N)cc3)c2cc1OC	nt	-10	nt	16	nt	-3	0	-8
CC1CC(C)CN(C(=O)c2cc3cc(Br)cc(Br)c3o2)C1 (stereo unspecified)	44	89*	i	-59	-7	nt	-1	0
CCCC1(c2ccccc2)NC(=O)NC1=O (stereo unspecified)	4	-12	i	4	-2	-13	1	2
O=C(Nc1cc([N+](=O)[O-])ccc1Cl)C1CC1	5	-9	i	9	-10	-7	-7	-3
COc1ccc(OC(=O)c2ccncc2)cc1	-7	6	i	12	0	-19	-3	-1
COc1ccc2c(CC(=O)NNC(=O)c3cccs3)coc2c1	nt	nt	nt	9	nt	-20	0	2
CC(=O)N(C)c1ccc(NC(=O)Nc2ccccc2C)cc1	1	7	i	-8	-10	-25	5	7
CCOC(=O)Cc1ccc(Nc2nc3cc(-c4sccc4C)sc3c(=O)n2C)cc1	nt	nt	nt	-29	nt	-14	1	-6
CC(=O)CSc1nnc(-c2ccco2)n1-c1ccccc1	5	-1	i	12	1	-3	2	4
N#Cc1c(NCCN)nc(-c2ccccc2)c2c1CCCC2	-2	10	i	nt	5	-10	8	-15
FC(F)(F)COc1ccc(-c2nnc(SCc3c(Cl)cccc3Cl)o2)cn1	5	-3	i	4	-7	nt	-1	-2
CCOC(=O)c1[nH]c(CSc2nnnn2-c2ccccc2C)c(C(=O)OCC)c1C	14	7	nt	nt	16	-5	-35	2

Some of these compounds in order of molar mass, largest number first:
SMILES	PABP FP inh	CSC inhib	Rce1 inh	HIV Env fusion	eIF4H FP inh	Yeast UUG start	MT1-MMP act inh	MT1-MMP act inh RFP	others
CN1CCN(C(=S)c2cn(Cc3ccc(Br)cc3)c3ccccc23)CC1	-2	nt	i	1	-12	nt	nt	nt
Cc1cc(C)nc(N2CCC(C(=O)NCc3ccccc3)CC2)n1	1	-5	i	-46	2	nt	2	6
CCOC(=O)c1sc(=S)n(Cc2ccccc2)c1N	-3	19	i	nt	7	-13	8	7

More structures follow:
SMILES	PABP FP inh	CSC inhib	Rce1 inh	HIV Env fusion	eIF4H FP inh	Yeast UUG start	MT1-MMP act inh	MT1-MMP act inh RFP	others
O=C(c1ccco1)N1CCN(C2CC(=O)N(c3ccccc3)C2=O)CC1 (stereo unspecified)	4	-15	i	-2	62	-17	3	2	eIF4H FP inh retest=-8;PABP FP inh retest=-3
O=S(=O)(c1ccccc1F)N1CCC(Oc2ccc(-n3cnnn3)cc2)CC1	2	nt	i	-4	-13	-6	-5	-20
C[C@H]1CN([C@@H](C)CO)C(=O)CCCn2nncc2CO[C@H]1CN(C)S(=O)(=O)c1ccccc1F	nt	nt	nt	-16	nt	-14&-14	0	6
CCc1nc2ccc(C(=O)N3CCN(C(=O)c4ccco4)CC3)cn2c1N(C)C(=O)COc1ccccc1	nt	nt	nt	-148	nt	-9	-1	5
CCOC(=O)NC(=S)Nc1ccc(OC)cc1	-13	3	i	-14	-1	-4	1	3
CCC1=[N+](C)CCn2c(C)ccc21	37	1	i	nt	-1	0	-3	-2
O=C(COc1nc2ccccc2nc1N1CCOCC1)Nc1ccc(S(=O)(=O)N2CCCC2)cc1	20	-9	i	nt	7	-7	-3	-1
O=C(NNc1ccc([N+](=O)[O-])cc1)C1C2CCCCC21 (stereo unspecified)	3	-3	i	-32	-7	nt	-2	-1
O=C(O)c1ccc(/C=N/Nc2ncc(Cl)cc2Cl)cc1	9	-14	i	6	-6	1	1	3
CC(=O)Nc1cc2c(cc1C(C)=O)OCCO2	4	-12	i	nt	-9	-12	1	5
CC(C)CC(=O)N=Nc1c(O)[nH]c2ccccc12	8	7	i	-5	5	-12	3	1
COc1cc(NC(=O)c2cc(C(C)C)on2)c(OC)cc1Cl	-2	-12	i	0	-2	-13	0	4
Cc1cc(C)c(S(=O)(=O)N2CCCCC2CCNC(=O)C(=O)NCc2cccnc2)c(C)c1 (stereo unspecified)	nt	2	i	nt	nt	-11	1	-9
CCCCN(C)C(=O)c1nc2ccccn2c1CNC1CCC1	-1	1	i	2	-6	-11	-2	4
O=C(Nc1cccc(-c2nnc(-c3ccccc3)o2)c1)c1ccco1	0	-10	i	nt	-8	-8	3	1
C#CCCOC(=O)N1C2=NC(C(=O)OC)=C(C(=O)OC)[C@@H]3N(C)c4ccccc4[C@]23C[C@H]1CO	nt	-5	i	-1	nt	-19	2	3
COc1ccc(OCCC(=O)OCC(=O)Nc2ccc(Br)cc2)cc1	-3	-9	i	5	0	-11	0	4
C=CCNC(=S)NNC(=O)c1ccccc1OCC	-17	-11	i	-7	-13	6	-2	7
CC(NC(=O)c1ccco1)C(=O)Nc1nccs1 (stereo unspecified)	nt	-3	nt	1	nt	nt	-1	3
